# Assay outcomes deposited in PubChem by Center for Chemical Genomics, University of Michigan.
# HIV TAR-Tat = TAR RNA-Tat peptide displacers, HIV-1, primary screen, biochemical, FRET, FAM/TAMRA-labeled Tat; 100,000 tested, 0.6% active; AID 1259389, 2018; z-score (test concentration not listed); HIV-1 TAR RNA, Tat peptide displacement FRET; active compounds read high;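 further: score is relative to mean and SD of negative controls; some compounds called inactive have numbers as strong as hits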
# CDC25B-CDK2 inh = primary biochemical HTRF screen for blockers of M-phase inducer phosphatase 2 binding to CDK2/cyclin A | HTRF CDC25B-CDK2/CyclinA binding, anti-His/anti-Flag; active compounds read high | 94,000 tested, 0.72% active | AID 1259370, 2018 | z-score (test concentration not listed);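 further: score is relative to mean and SD of negative controls; strong numbers were not always called active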
# Numbers without * were called inactive; / = no result given.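 How the source made its calls: active means z-score from 3 up in half or more of its runs; inactive means the rest.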
SMILES,HIV TAR-Tat,CDC25B-CDK2 inh
CC(C)(C)C(=O)CSC1=NNC(c2ccccn2)S1 (centres undefined),/,-0.67
COc1ccc(-c2noc(N3CCCC(C)C3)n2)cc1 (centres undefined),1.39,/
CCOC(=O)c1noc2ncnc(Nc3ccc(F)c(Cl)c3)c12,-0.08,/
CC(C)Cn1cc(NC(=O)NCCC2=CCCCC2)c2ccccc2c1=O,0.92,/
COc1ccc(-n2nnc(-c3nc(-c4ccccc4Cl)no3)c2N)cc1,1.15,/
CC1CCCCN1C(=O)CCS(=O)(=O)c1cc2c(cc1Cl)NC(=O)CO2 (centres undefined),2.22,/
CCNS(=O)(=O)c1cc2c(cc1C)NC(=O)CO2,1.46,/
CNc1ncccc1-c1nc(C)no1,0.91,-1.08
CN(C)c1ccc(CNc2nc3ccccc3n2CCN2CCCCC2)cc1,1.84,-1.52
CCC(C)NC(=O)Cn1cnc2c1c(=O)n(C)c(=O)n2C (centres undefined),0.96,0.37
COc1ccc(CN(C(=O)c2cc(=O)c3cc(Cl)ccc3o2)C2CCS(=O)(=O)C2)cc1OC (centres undefined),3.69,-1.4
CC1(C)Cc2c(c(N3CCOCC3)nc3sc4c(=O)n(-c5cccc(Cl)c5)cnc4c23)CO1,-0.37,-0.96
O=S(=O)(Oc1ccc(Oc2ccccc2)cc1)c1ccc(Cl)cc1,/,-1.68
NC(=O)c1c(C(F)(F)F)cc(C(F)(F)F)cc1C(F)(F)F,/,-1.2
COc1ccc(N2C(=O)C3N=NN(CC(=O)Nc4cc(Cl)ccc4OC)C3C2=O)cc1 (centres undefined),-0.44,1.11
CCN(CC)c1cccc(Oc2nc([N+](=O)[O-])nn2Cc2ccccc2F)c1,-7.31,-0.33
Cc1c(NC(=O)c2nccnc2C(=O)O)c(=O)n(-c2ccccc2)n1C,/,-1.05
O=C(c1cccs1)N1CCc2cc3ccccc3nc21,0.71,-2.7
Cc1nc(-c2nc(CC(=O)NNC(=O)Nc3cccc(C(F)(F)F)c3)cs2)cs1,/,-1.59
COc1ccccc1C1=NS(=O)(=O)c2cc(S(=O)(=O)N3CCOCC3)ccc2N1,1.53,/
O=C(NCc1cccs1)c1ccc2c(=O)n3nc(NCc4ccccc4)sc3nc2c1,0.86,-4.92
COC(=O)C1C(=O)C2=C(CC1C)NC(C)=C(C(=O)OC1CCCC1)C2c1cc(OC)ccc1OC (centres undefined),-1.08,-1.3
CCCCOc1ccc(NS(=O)(=O)c2ccc(-n3cnnn3)cc2)cc1,0.2,0.91
O=C(NCCN1CCCC1)c1cc(-c2ccncc2)nc2ccc(S(=O)(=O)N3CCOCC3)cc12,0.82,/
Cc1nc2nncn2c(NCCC(C)C)c1C,1.29,-0.74
CCOC(=O)c1ccc(N2C(=O)c3n[nH]c(C)c3C2c2ccc(CC)cc2)cc1 (centres undefined),0.68,/
CCC(CC)=NOc1ccc([N+](=O)[O-])cc1[N+](=O)[O-],/,-0.67
COc1ccc(C(=O)CSc2nc(=O)n(-c3ccc(Cl)cc3)c3c2CCC3)cc1,-1.87,-0.3
COc1ccc(S(=O)(=O)[C@H]2CS(=O)(=O)C[C@@H]2NCCc2ccc(F)cc2)cc1,1.76,-0.35
Cn1cc(S(=O)(=O)N2CCOCC2)cc1C(=O)Nc1cccc(Br)c1,0.3,/
Cc1noc2ncnc(N3CCCC(C(=O)NCCCN4CCOCC4)C3)c12 (centres undefined),0.04,/
Cc1ccc2oc(C(=O)N(Cc3ccc(N(C)C)cc3)CC3CCCO3)c(C)c2c1 (centres undefined),0.75,2.09
COC(=O)c1sc(S(C)(=O)=O)c(C#N)c1-c1cc(C(C)(C)C)oc1C,/,-0.65
CCN(CC)c1ccc(NC(=O)C2CCC(C)(C(=O)O)C2(C)C)cc1 (centres undefined),1.15,-3.23
Cc1sc2nc[nH]c(=S)c2c1-c1ccccc1,0.75,-0.28
O=C(c1cnn(-c2ccccc2)c1-n1cccc1)N1CCN(c2ccccn2)CC1,-0.33,-1.12
COc1ccc(NS(=O)(=O)c2csc(C(=O)N3CCCC3)c2)c(OC)c1,0.87,/
Cc1ccccc1C(=O)c1ccccc1C(=O)O,/,-0.96
CN(C(=O)CSc1nc(-c2ccc(C(C)(C)C)cc2)c(C#N)c(=O)[nH]1)C1CCCCC1,-2.31,-0.59
COC(=O)c1nnc2c(-c3ccc(OC)cc3)c(C)nn2c1C,-0.01,-1.15
CCc1nnc2c(Nc3cccc(F)c3)nc3ccccc3n12,0.32,/
O=S1(=O)C[C@H](NCCC2=CCCCC2)[C@@H](S(=O)(=O)c2ccccc2)C1,-3,-2.31
CCc1ccc(S(=O)(=O)NCc2cn3ccccc3n2)cc1,/,0.23
O=C1NCCCCC1NS(=O)(=O)c1cc(S(=O)(=O)c2ccccc2)cs1 (centres undefined),/,-1.22
COc1ccc(-c2[nH]nc3c2C(c2cccs2)C(C#N)=C(N)O3)cc1 (centres undefined),0.13,/
Cc1cc(NCCc2ccccc2)n2ncnc2n1,0.41,-0.86
Cc1nnc2c3ccccc3c(N3CCc4ccccc4C3)nn12,-0.23,-1.67
Nc1c(-c2ccc(Cl)cc2)nnn1-c1cccc(C(F)(F)F)c1,/,0.46
CNC(=O)c1nn(-c2ccccc2)nc1CO,-0.77,-1.63
CC(C)CN1CCc2nc(N3CCN(c4ccccn4)CC3)ncc2C1,0.24,/
CCOC(=O)c1ccc(-n2cc3c(=O)n(C)c(=O)n(C)c3c2)cc1,/,-0.77
O=C(Cn1c(=O)sc2ccccc21)NCc1ccco1,1.38,1.5
COc1ccc(N2C(N)=NC(N)=NC23CCCC3)cc1,/,-1.56
COc1ccc(Cl)cc1NS(=O)(=O)c1c(C)nc2sc(C)cn2c1=O,0.25,/
O=C(c1ccccc1)n1ccc2ccccc21,/,0.16
Cc1c(-c2ccnc(N)n2)nnn1-c1ccc(Cl)cc1Cl,/,-2.44
O=[N+]([O-])c1ccc(CSc2nc3cc(Cl)c(F)cc3[nH]2)cc1,/,1.38
CCOc1ccccc1N1CC(c2nc3ccccc3n2CCCOc2ccccc2)CC1=O (centres undefined),2.34,-2.52
COc1ccc(Nc2nc(Cl)nc(Nc3ccc(OC)cc3OC)n2)c(OC)c1,-1.05,-1.33
N=C(N)SCc1ccc([N+](=O)[O-])o1,/,1.31

# Other records follow.
SMILES,HIV TAR-Tat,CDC25B-CDK2 inh
O=C(O)CCn1nc(Nc2ccccc2)n(-c2ccccc2)c1=S,/,-1.32
CC(=O)NC(c1ccc(Cl)cc1)n1ccnc1 (centres undefined),/,-1.9
CC(C)Cc1nn2c(=O)cc(CSCC(=O)Nc3ccccc3F)nc2s1,-1.57,/
CCOC(=O)C1CCN(C(=O)c2oc3ccc4c(c3c2C)C(O)CC2(CCCCC2)O4)CC1 (centres undefined),1.65,-0.7
O=C1c2ccccc2-c2onc3c(N4CCCCC4)cc(N4CCOCC4)c1c23,0.69,-1.62
Cn1c(=O)c2c(SCC(=O)Nc3nc4ccccc4s3)nc(C3CCCC3)nc2n(C)c1=O,0.07,/
COC(=O)c1cc2oc(C)cc2n1CC(=O)NCCC1=CCCCC1,-0.54,-0.26
Clc1ccc(-c2nc3cnccn3c2NC2CCCCC2)cc1,-2.06,0.19
O=S(=O)(c1ccc2nc(NCCc3c[nH]c4ccccc34)cnc2c1)N1CCCCC1,-5.05,-0.69
COc1ccc(N2C(=O)CSC2c2ccc(Cl)cc2)cc1 (centres undefined),0.88,8.8
CC12CN3CC(C)(CN(C1)C3c1ccccc1Cl)C2O (centres undefined),-0.08,2.37
Clc1nc2ccccc2nc1N1CCSCC1,0.99,0.73
CC(C)Cn1cc(NC(=O)N(CCN(C)C)Cc2ccco2)c2ccccc2c1=O,1.2,/
CN(CC(=O)Nc1ccc(Br)cc1)S(=O)(=O)c1ccc2c(c1)CCC(=O)N2,/,-0.34
CCOC(=O)c1c(C)oc2ncnc(NC(CO)C(=O)OCC)c12 (centres undefined),1.04,/
CSc1nc(N)n(-c2ccccc2)n1,/,-1.2
Cc1nc2scc(C)n2c(=O)c1S(=O)(=O)NCc1cccnc1,3.04,-2.27
CCOC(=O)c1c(S(=O)(=O)NCC(=O)NCc2ccc(C)o2)c(C)n(C)c1C,2.26,/
CCN(C(=O)c1noc2c1COc1ccccc1-2)c1ccccc1F,0.62,-2.02
CC(=O)Nc1ccc(NC(=O)C2CCCN(c3ncnc4c3nc3n4CCCCC3)C2)cn1 (centres undefined),-0.15,/
O=C(Nc1noc2ccccc12)C(=O)c1ccccc1,0.76,-2.9
Cc1cc2nc(Nc3ncc4c(n3)CCCC4=O)nc(C)c2cc1C,-0.57,-0.31
O=c1[nH]c(-n2cccc2)c(-c2c(-c3cccc(Cl)c3)[nH]c3[nH]c(=O)[nH]c(=O)c23)c(=O)[nH]1,0.7,-2.89
CCOC(=O)N1CCN(C(=O)Cn2sc3nc(C)cc(C)c3c2=O)CC1,1.97,-1.94

# Reformatted: entries from further up.
# Values run as follows: HIV TAR-Tat, CDC25B-CDK2 inh
COc1ccc(Cl)cc1NS(=O)(=O)c1c(C)nc2sc(C)cn2c1=O
  0.25, /
COc1ccc(N2C(=O)CSC2c2ccc(Cl)cc2)cc1 (centres undefined)
  0.88, 8.8
CCN(CC)c1cccc(Oc2nc([N+](=O)[O-])nn2Cc2ccccc2F)c1
  -7.31, -0.33

# Molecules from the list above containing a tert-butyl group, in the order listed:
SMILES,HIV TAR-Tat,CDC25B-CDK2 inh
CC(C)(C)C(=O)CSC1=NNC(c2ccccn2)S1 (centres undefined),/,-0.67
COC(=O)c1sc(S(C)(=O)=O)c(C#N)c1-c1cc(C(C)(C)C)oc1C,/,-0.65
CN(C(=O)CSc1nc(-c2ccc(C(C)(C)C)cc2)c(C#N)c(=O)[nH]1)C1CCCCC1,-2.31,-0.59

# (further entries)
SMILES,HIV TAR-Tat,CDC25B-CDK2 inh
OCc1cnc(SCc2ccc(F)cc2)n1Cc1ccc(F)cc1,0.17,/
NC(=O)C1CCN(C(=O)CCCn2sc3ccccc3c2=O)CC1,1.89,-1.5
O=C(CCc1nc(-c2ccccn2)no1)NC1CCCCC1,0.84,-0.19
CCC(C(=O)OC)n1nnc2sc(-c3ccccc3)cc2c1=O (centres undefined),1.41,-0.01
O=C(C1CCN(c2nc3cccnc3s2)CC1)N1CCN(c2ccccn2)CC1,0.33,/
O=c1c(-c2ccccc2)c(O)nc2n1CCCS2,0.35,-1.53
CNC(=O)c1nnc(Cc2ccc3c(c2)OCO3)o1,1.18,-1.71
O=C(CSc1nnc([C@@H]2CCCN2)o1)c1ccc(Cl)cc1,1.32,-1.23
Clc1ccc(-n2cnnn2)cc1,/,-0.24
CC(=O)/C(N=Nc1cc(F)c(Br)cc1F)=C(\C)O,/,-2.1
COc1ccc([C@H]2COc3c(ccc(O)c3OC)C2)c(OC)c1O,2.78,/
O=C1C2CCCCC2=NN1c1ccccc1 (centres undefined),1.53,-0.17
O=C1CC(c2ccc3c(c2)OCO3)c2cc3c(cc2N1)OCO3 (centres undefined),/,-0.29
COc1ccc(CCNc2nc3ccc(C(=O)c4ccccc4)cc3n3cnnc23)cc1OC,0.3,-0.68
CCn1c(=O)n(CC2CCC(C(=O)NC(C)C)CC2)c(=O)c2sccc21 (centres undefined),-1.22,/
O=C1C2=C(C(c3ccccc3)=NCCN2)C(c2ccc(F)cc2)N1c1ccccc1 (centres undefined),1.16,-0.8
O=C(c1ccc(F)cc1)C1CCN(Cc2cn[nH]c2-c2ccccc2)CC1,/,-1.35
Cc1nc(-c2ccccc2)cc(N2CCCCC2)n1,1.88,-0.97
Cc1cc(C)c2oc(C(=O)N(Cc3ccc(C)o3)C3CCS(=O)(=O)C3)c(C)c2c1 (centres undefined),1.94,2.56
C=CCn1c(NCc2ccc(O)cc2)nc2ccccc21,0.62,-1.61
Cn1nc(C(=O)Nc2ccc(-c3ccno3)cc2)c2c1-c1ccsc1CC2,-0.47,/
CCOC(=O)c1ccc(CSc2nc3c(c(=O)[nH]2)CCCC3)cc1,0.51,-2.09
N#Cc1nc(/C=C/c2ccc(F)cc2)oc1N1CCCCC1,0.49,-2.05
Cc1noc(/C=C/N(C)C)c1S(=O)(=O)N1CCc2ccccc21,-3.68,/
O=S(=O)(c1ccc(-c2cnco2)cc1)N(Cc1ccccn1)Cc1ccccn1,/,-1.76
CCCc1nc(N2CCCCC2)c(C#N)c2c1COC(C)(C)C2,-0.31,0.01
COC(=O)c1cc(S(=O)(=O)N2CCCC2C(=O)Nc2ccc(F)cc2Cl)cn1C (centres undefined),-1.77,/
CC1CCN(C(=O)c2[nH]nc3c2COc2ccccc2-3)CC1,-1.29,/
CC1(C)CC(=O)C2=C(C1)Nc1ccccc1NC2c1cccc(Br)c1 (centres undefined),0.39,-2.33
COC(=O)c1ccc(C2c3c(oc4ccc(F)cc4c3=O)C(=O)N2CCCN2CCOCC2)cc1 (centres undefined),-0.52,-1.44
CC(C)(C)N1C(=O)C2C(C(=O)Nc3cccc(Cl)c3)C3C=CC2(O3)C1C(=O)NC1CCCCC1 (centres undefined),-0.78,-0.75
CCOC(=O)N1CCN(C(=O)Cn2cc3c(n2)CCC(C)C3)CC1 (centres undefined),-0.49,-0.83
CC1CCCC(NS(=O)(=O)c2ccc3c(c2)CC(C)N3C(=O)C2CC2)C1C (centres undefined),0.97,/
CCOC(=O)c1c(C)oc2ccc(O)c(CN(C)C)c12,0.45,-0.46
COC(=O)c1c(-c2cccs2)csc1NC(=O)COc1ccc(Cl)cc1,0.63,-2.98
CC(C)Cc1ccc(C(C)C(=O)O/N=C(\N)c2cccs2)cc1 (centres undefined),/,-1.29

# Filtered by structure, those above with a COOH group
SMILES,HIV TAR-Tat,CDC25B-CDK2 inh
Cc1c(NC(=O)c2nccnc2C(=O)O)c(=O)n(-c2ccccc2)n1C,/,-1.05
CCN(CC)c1ccc(NC(=O)C2CCC(C)(C(=O)O)C2(C)C)cc1 (centres undefined),1.15,-3.23
Cc1ccccc1C(=O)c1ccccc1C(=O)O,/,-0.96
O=C(O)CCn1nc(Nc2ccccc2)n(-c2ccccc2)c1=S,/,-1.32
